# FGF22 binding: binders of human FGF22 protein, primary screen, FGF22 synaptogenesis inhibitor project, biophysical, thermal shift, single point | calls only at 9.99 µM | recombinant FGF22 thermal shift, SYPRO orange fluorescence; percent of sucrose octasulfate shift, DMSO zero | hit rate 1.5% among 340,000 | AID 651658, 2012 | Fibroblast growth factor 22 (Homo sapiens), Q9HCT0;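 active = melting point raised past a set limit in the mean and every replicate; inconclusive = no clear call; three in four hits are not shown here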
# Target sequence (Q9HCT0 whole entry, looked up): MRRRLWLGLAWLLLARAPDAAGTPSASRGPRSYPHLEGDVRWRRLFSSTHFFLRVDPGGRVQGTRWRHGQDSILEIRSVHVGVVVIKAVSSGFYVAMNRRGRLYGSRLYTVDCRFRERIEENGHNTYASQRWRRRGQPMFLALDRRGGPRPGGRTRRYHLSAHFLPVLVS
# MLL AF4-AF9 inh: inhibitors of AF4 peptide binding to AF9, primary screen, biochemical, AlphaScreen, biotin-AF4 peptide, FLAG-AF9, single point. hit rate 0.47% among 350,000. inhibition, % at 10 µM. Protein AF-9 (Homo sapiens), P42568;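 active = every replicate reaching a set inhibition limit, whatever the replicate mean, cut at about 25% in these data; inconclusive = mean inhibition reaches that limit but some replicates miss it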;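 also: 0% = plate neutral control median and 100% = total signal loss; the record names both 10 and 1 µM as test concentration; the first replicate is given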
# Target sequence (P42568 whole entry, looked up): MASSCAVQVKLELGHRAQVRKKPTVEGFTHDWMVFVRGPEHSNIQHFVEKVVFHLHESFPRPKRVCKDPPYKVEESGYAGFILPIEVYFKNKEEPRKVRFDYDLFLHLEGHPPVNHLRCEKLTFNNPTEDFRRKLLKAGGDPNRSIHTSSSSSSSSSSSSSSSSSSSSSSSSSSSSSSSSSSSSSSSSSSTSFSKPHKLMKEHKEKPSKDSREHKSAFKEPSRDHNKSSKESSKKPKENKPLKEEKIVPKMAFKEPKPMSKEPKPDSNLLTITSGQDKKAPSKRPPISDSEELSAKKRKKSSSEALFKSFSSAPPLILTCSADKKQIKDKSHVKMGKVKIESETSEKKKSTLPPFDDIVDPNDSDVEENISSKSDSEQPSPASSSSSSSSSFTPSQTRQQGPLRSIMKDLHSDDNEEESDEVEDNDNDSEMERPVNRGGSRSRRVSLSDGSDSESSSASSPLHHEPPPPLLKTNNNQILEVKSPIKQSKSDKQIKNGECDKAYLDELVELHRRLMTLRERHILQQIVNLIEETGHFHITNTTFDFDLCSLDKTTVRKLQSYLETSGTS
# E coli growth: E. coli growth inhibition, primary screen, OD600; OD600 absorbance (no concentration beside the values); hit rate 0.21% among 330,000; Escherichia coli growth, 23 h; active compounds read low;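 active = OD600 absorbance below the run mean of sample wells minus 3.6 SD, in any replicate, cut at about 0.56 in these data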;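 also: stock transfer was 300 nL into about 60 µL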
# ALR inh: inhibitors of human ALR sulfhydryl oxidase, primary screen, biochemical, H2O2 detection, HRP-luminol luminescence, single point; FAD-linked sulfhydryl oxidase ALR (Homo sapiens), P55789; purified ALR, DTT oxidation; inhibition, % (no concentration beside the values); hit rate 3.8% among 290,000; AID 485317, 2010;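 active = mean and each replicate at 75% or more; inconclusive = only one of the two met; inactive = neither met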;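 also: stock transfer was 7.5 nL into about 7.5 µL; 0% = neutral wells and 100% = wells with inactivated enzyme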
# Target sequence (P55789 whole entry, looked up): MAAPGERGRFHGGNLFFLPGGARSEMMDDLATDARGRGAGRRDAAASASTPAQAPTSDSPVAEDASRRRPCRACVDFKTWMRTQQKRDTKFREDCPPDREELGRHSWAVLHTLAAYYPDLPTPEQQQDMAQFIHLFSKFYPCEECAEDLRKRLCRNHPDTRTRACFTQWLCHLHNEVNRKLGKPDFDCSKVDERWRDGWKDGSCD
# HNF4A DNA FP: change in binding of human HNF4A to DNA, primary screen, biochemical, fluorescence polarization, FITC-DNA | activity change, % at 10 µM | hit rate 0.3% among 360,000 | Hepatocyte nuclear factor 4-alpha (Homo sapiens), P41235 | 1 h; in the data active = activity change above about 30%, passing the limit was not always enough;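 also: controls were the assay level and a saturating level of protein; the project sought stronger binding though the title names inhibitors; some compounds called inactive have numbers as strong as hits; positive values seem to mean higher polarization but the record does not say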
# Ecoli rRNA inh: reduced GFP signal of wild-type E. coli, primary screen, bacterial rRNA inhibitor project, GFP/RFP fluorescence, OD600, single point; GFP signal change (wild-type ribosome), % (no concentration beside the values); E. coli WT GFP vs humanized-ribosome RFP mutants, 24 h; active compounds read low; DMSO median 0, no signal -100; hit rate 1.6% among 350,000;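 active = significant combined selectivity score with lowered wild-type GFP, culture density cut under 30%, mutant RFP and density less affected; inactive = any of these conditions unmet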; also: one replicate is shown; some compounds called inactive have numbers as strong as hits
# Vif TR-FRET: inhibitors of Vif binding to APOBEC3G peptide, primary screen, biochemical, TR-FRET, GST-Vif 1-94, biotin-A3G peptide, dose response retest (AID 1117319) | TR-FRET GST-Vif / biotin-A3G peptide binding; higher % means a stronger effect; test concentration not given here; strong numbers were not always called active | hit rate 0.57% among 260,000 | inhibition, %, or IC50 in µM where a hit was titrated | Virion infectivity factor (Human immunodeficiency virus type 1 group M subtype B (isolate …;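 active = above the screen mean plus three standard deviations and confirmed in dose response; inconclusive = results disagree or hit not tested in dose response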;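 also: Vif residues 1-94 fused to GST binding biotinylated APOBEC3G peptide 110-148; 0% = full assay without inhibitor and 100% = GST in place of GST-Vif; retest series ran down from 100 µM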
# Ecoli rRNA inh OD600: also measured in Ecoli rRNA inh; calls as there; OD600 change, %; measured here: OD600 growth;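 optical density of the mix in the first replicate; 0 = DMSO median and -100 = no signal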
# Ecoli rRNA inh RFP: second read-out of Ecoli rRNA inh, no call of its own (marks repeat the call); RFP signal change, %; measured here: RFP humanized mutant strains;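 first replicate; 0 = DMSO median and -100 = no signal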
# * marks the source's active call; other numbers are inactive results; i = inactive; ? = inconclusive; · = no result given; & = joins results of further samples. An excerpt (hit frequency here may not be typical).
SMILES,FGF22 binding,MLL AF4-AF9 inh,E coli growth,ALR inh,HNF4A DNA FP,Ecoli rRNA inh,Ecoli rRNA inh OD600,Ecoli rRNA inh RFP,Vif TR-FRET
CCNc1nc(NCC)nc(OCCOC(=O)Nc2ccccc2)n1,i,1.6,0.7,-4,1.7,9,1,0.4,-12%
CCOC(=O)c1c(NC(=O)COC(=O)c2cnccn2)sc(C(=O)NC)c1C,i,2.1,·,-1,1.3,2,6,-1.0,·
NC(=O)NC(=O)COC(=O)c1cccnc1Nc1ccccc1F,i,-0.1,0.71,·,-1.3,8,3,-0.4,-3%
O=C(NC1CC1)C(=O)c1c(-c2ccccc2)[nH]c2ccccc12,i,-1.3,0.67,-5,2.3,-2,-14,-4.6,-13%
NS(=O)(=O)c1ccc(CCNC(=O)c2cc3ccccc3s2)cc1,i,1.2,0.69,-17,1.3,-1,-5,-1.7,-33%
O=C(NCCC1CCCCN1S(=O)(=O)c1cccs1)C(=O)NCc1ccccc1 (centres undefined),i,-1.2,·,·,0.1,6,11,-0.3,·
Nc1nc(SCC(=O)N2CCCC2)[nH]c(=O)c1-c1ccccc1,·,·,0.67,-6,-1.7,·,·,·,5%
CCOc1ccc(Br)cc1S(=O)(=O)Nc1ncn[nH]1,i,-2.3,0.68,-4,-4.1,2,-1,-2.0,·
CO[C@@H](CN(C)C(=O)C1CCOCC1)[C@@H](C)CN(C(=O)Nc1ccc(C(F)(F)F)cc1)[C@H](C)CO,i,0.5,·,·,·,-60,-81,-23,·
NC(=O)C(c1ccc(Cl)cc1Cl)c1ncc(C(F)(F)F)cc1Cl (centres undefined),·,·,0.69,-14,-3.0,·,·,·,0%
COc1ccccc1-n1ccn(CC(=O)Nc2ccc(C)cc2Cl)c(=O)c1=O,i,-15,0.66,-6,0.5,3,4,1.6,-3%
COc1ccc(NC(=O)c2cc(=O)[nH]c3ccccc23)cc1S(=O)(=O)N1CCOCC1,i,-5.9,·,·,-2.3,1,8,1.2,0%
COc1cc(C(c2sc3nc(C)nn3c2O)N2CCOCC2)cc(OC)c1OC (centres undefined),i,-0.5,0.73,-14,3.3,-4,0,-3.2,25%
COc1ccc(-c2cn3nc4c(nc3n2)CCCC4)cc1,·,·,0.72,·,1.7,·,·,·,?
COc1ccccc1S(=O)(=O)N(C)C[C@H]1OCc2cnnn2CCCC(=O)N([C@H](C)CO)C[C@H]1C,i,0.1&-4.2,·,·,0.1,6&0,9&2,2.4&1.3,·
C[C@H]1CN([C@@H](C)CO)S(=O)(=O)c2ccc(-c3ccncc3)cc2O[C@@H]1CN(C)S(C)(=O)=O,i,-13,·,·,·,3,9,0.7,·
COCC#Cc1cnc2c(c1)C(=O)N([C@H](C)CO)C[C@@H](C)[C@@H](CN(C)C(=O)C1CC1)O2,i,-3.4,·,·,·,6,2,-4.0,·
CCn1cc(C(=O)NCC2CCCO2)c(=O)c2cc(S(=O)(=O)N3CCC(C)CC3)ccc21 (centres undefined),·,·,0.73,-12,-1.1,·,·,·,-6%
COCCN(C(=O)COC(=O)c1sccc1C)c1c(N)n(Cc2ccccc2)c(=O)[nH]c1=O,i,-0.8,0.72,-8,6.0,17,15,-1.9,·
O=C(c1ccccc1)N1CCC(c2nc(-c3ccc(S(=O)(=O)N4CCOCC4)cc3)no2)CC1,·,·,·,-1,-3.4,·,·,·,-5%
CCc1ccc(-c2ccc(SCC(=O)Nc3nnc(C)s3)nn2)cc1,·,-1.5,0.67,-2,1.5,4,4,-2.1,5%
CC(C)NC(=O)N(C)C[C@H]1OCCCC[C@H](C)Oc2ccc(N(C)C)cc2C(=O)N([C@@H](C)CO)C[C@H]1C,i,3.7,·,·,·,4,9,-1.7,·
O=C(C[C@H]1C=C[C@@H](NC(=O)CC2CC2)[C@H](CO)O1)NCc1ccc(-c2ccccc2)cc1,i,-0.3,·,·,·,-6,-2,3.3,·
CCOc1ccc(CNC(=O)NS(=O)(=O)c2ccc(OC)cc2)cc1,·,·,0.71,-2,-2.7,·,·,·,4%
O=C(N[C@H]1C=C[C@@H](CC(=O)N2CCCCC2)O[C@@H]1CO)c1ccccn1,i,-0.6,·,·,·,2,1,-1.4,·
CN(C)S(=O)(=O)Oc1ccsc1C(=O)Nc1ccc(C(F)(F)F)cc1,i,-3.6,0.7,-3,3.4,-21,-24,-2.2,-2%
CN(Cc1cnccn1)Cc1cn(Cc2ccccc2)nc1-c1ccc2c(c1)OCO2,i,-0.4,0.69,·,-0.1,5,5,-1.4,-2%
CCOC(=O)C1CCN(c2c(N(C)Cc3ccco3)c(=O)c2=O)CC1,i,2.7,0.7,·,5.8,4,0,-2.2,-1%
Cc1cc2oc(=O)cc(CN3CCN(c4ccc(Cl)c(Cl)c4)CC3)c2cc1Cl,i,-1.4,·,·,6.7,11,10,3.5,·
Cc1ccc(CNC(=O)c2ccc(N(C)S(=O)(=O)c3ccccc3)cc2)cc1,i,-0.2,0.69,·,3.0,-33*,-17*,-2.4*,4%
CC(=O)c1ccc(N2CCN(CC(=O)NCc3ccccc3)CC2)cc1,i,2.1,0.62,3,2.4,5,18,-5.6,-12%
Cc1ccc(Sc2ccc(NC(=O)c3ccc(F)cc3)cc2C#N)cc1,i,-3.5,·,·,1.9,0,20,-3.3,·
CCOC(=O)C1=CCN(S(=O)(=O)c2ccccc2Cl)C1c1ccc(Cl)cc1 (centres undefined),i,-6.4,·,·,·,-9,-25,-7.5,·
O=C(NCCCO)C(=O)NCc1ccncc1,i,-1.8,0.7,-10,0.5,11,8,16,-4%
Cc1ccc(Sc2c([N+](=O)[O-])ncn2C)cc1,·,·,0.62,98*,-2.7,·,·,·,0%
Cc1ccc(NC(=O)CCn2cccc2)cc1C,·,·,0.7,1,0.6,·,·,·,3%

# Complete entries from above. Order of values: FGF22 binding	MLL AF4-AF9 inh	E coli growth	ALR inh	HNF4A DNA FP	Ecoli rRNA inh	Ecoli rRNA inh OD600	Ecoli rRNA inh RFP	Vif TR-FRET
# `Cc1ccc(CNC(=O)c2ccc(N(C)S(=O)(=O)c3ccccc3)cc2)cc1` across the screens: i	-0.2	0.69	·	3.0	-33*	-17*	-2.4*	4%
# `O=C(NCCCO)C(=O)NCc1ccncc1` across the screens: i	-1.8	0.7	-10	0.5	11	8	16	-4%

# The list continues.
SMILES,FGF22 binding,MLL AF4-AF9 inh,E coli growth,ALR inh,HNF4A DNA FP,Ecoli rRNA inh,Ecoli rRNA inh OD600,Ecoli rRNA inh RFP,Vif TR-FRET
COc1cccc(C(=O)Nc2cc(NC(=O)c3ccco3)ccc2OC)c1,·,·,0.71,-4,-0.7,·,·,·,-4%
Cc1nn(C)cc1NC(=O)C[C@@H]1CC[C@@H]2[C@@H](COc3ccc(NC(=O)C4CCOCC4)cc3C(=O)N2C)O1,i,-2.1,·,·,·,0,8,0.4,·
C[C@@H]1CN([C@H](C)CO)C(=O)c2cc(-c3cncnc3)cnc2O[C@@H]1CN(C)Cc1ccc(F)cc1,i,-3.2,·,·,·,1,3,0.5,·
Cc1ccc(S(=O)(=O)NCC[C@H]2CC[C@@H](NC(=O)c3ccccn3)[C@H](CO)O2)cc1,i,1.3,·,·,·,0,1,-1.1,·
S=C(NCc1ccccc1)N1CCN(c2ccccc2)CC1,i,-0.5,0.68,9,-0.8,-18,-11,-1.3,-6%
O=C(CSc1nc2[nH]c(=O)cc(O)c2s1)Nc1nccs1,i,-6.6,0.66,95*,-1.1,8,5,0.6,·
CCOC(=O)CN1C(=O)C(=O)N(Cc2c(C)cc(C)cc2C)C1=O,i,-8.9,0.68,-1,-1.6,3,13,2.7,·
COc1ccccc1N1CCN(C(=O)CSc2nnc3n2C(C)(C)Cc2ccccc2-3)CC1,·,·,0.68,·,-1.0,·,·,·,1%&-2%
CC(C)(C)c1ccc(C(=O)OCC(=O)Nc2cccc(S(=O)(=O)NC3=NCCC3)c2)cc1,i,4.7,·,·,3.2,-11,-39,0.0,-3%
Cc1ccc2nc(-c3ccncc3)cc(C(=O)NCCc3ccc(F)cc3)c2c1,i,0.6,0.66,5,-1.1,11,2,3.3,-11%
O=C(NCC[C@@H]1CC[C@@H](NS(=O)(=O)c2cccc(F)c2)[C@H](CO)O1)C1CCCC1,i,-1.0,·,·,·,3,-4,4.1,·
Cc1ccc2ccc(C(Nc3ccccc3)c3ccc(Cl)cc3)c(O)c2n1 (centres undefined),i,3.3,·,·,7.4,-7,-21,-6.5,·
Cn1c(=O)c2c(nc(CN3CCC(C(N)=O)CC3)n2Cc2ccccc2F)n(C)c1=O,·,·,0.67,·,7.6,·,·,·,0%
O=S(=O)(c1ccccc1F)N1CCc2ccccc2C1,i,2.5,0.71,·,1.1,8,4,1.1,·
C[C@H]1CN([C@@H](C)CO)S(=O)(=O)c2ccc(-c3ccccc3F)cc2O[C@H]1CN(C)CC1CC1,i,5.0,·,·,·,1,6,0.6,·
COc1ccc(OC)c(CN(CCCN2CCOCC2)C(=O)Nc2ccccc2)c1,·,·,0.74,-6,-1.9,·,·,·,13%
O=C(Nc1cccc2cccnc12)c1cccc([N+](=O)[O-])c1,i,-1.6,0.67,-17,1.6,-5,3,-3.7,·
O=C(NCCc1ccccc1)c1ccccc1C(=O)NCCc1ccccc1,i,-2.3,0.7,-62,-2.2,23,4,2.8,·
CS(=O)(=O)N(CC(=O)N1CCCCC1)c1ccc2c(c1)OCO2,i,7.9,0.66,-1,6.0,9,9,-4.1,5%
CCOC(=O)C1CCN(C(=O)COc2ccc(Br)cc2)CC1,·,·,0.75,-36,-0.7,·,·,·,-2%
COC(=O)[C@]12CCCCC=C1N(CCC1=CCCCC1)C(=O)[C@H](CC(=O)NCC1CCCCC1)C2,i,-0.7,·,·,-0.2,19,6,2.4,·
COCC(=O)Nc1ccc2c(c1)C(=O)N(C)C[C@@H](OC)[C@@H](C)CN(C(=O)Cc1ccccn1)[C@@H](C)CO2,i,-0.6,·,·,·,2,-1,-3.1,·
O=C(COC(=O)CNC(=O)c1cccc([N+](=O)[O-])c1)Nc1cccc(S(=O)(=O)N2CCCCC2)c1,·,·,0.71,-5,23,·,·,·,2%
Cc1ccc(N(CC(O)Cn2c3ccccc3c3ccccc32)S(C)(=O)=O)cc1 (centres undefined),i,-3.6,0.7,·,0.4,-30,-26,0.7,-5%
COc1ccccc1N1CCN(CCNC(=O)Nc2cccc(C)c2C)CC1,·,·,0.67,2,2.8,·,·,·,-2%
O=C(NCCN1CCN(c2ccccc2F)CC1)C1CCCN(S(=O)(=O)c2cnc[nH]2)C1 (centres undefined),i,-4.1,0.71,88*,4.9,8,8,3.2,13%
CCOC(=O)c1sc(NC(=S)NC(=O)c2ccco2)nc1C,·,·,0.68,10,-1.3,·,·,·,?
CCCS(=O)(=O)c1ccc(COC(=O)Cc2ccc([N+](=O)[O-])cc2)cc1,i,1.6,0.69,-1,2.7,10,6,3.0,-1%
O=C1/C(=C/c2ccco2)SC(=S)N1C1CCS(=O)(=O)C1 (centres undefined),i,9.1,0.65,-5,8.8,2,11,12,3.9µM*
C/C=C/c1cnc2c(c1)C(=O)N([C@@H](C)CO)C[C@@H](C)[C@H](CN(C)C(=O)Nc1ccccc1F)O2,i,-1.9,·,·,·,7,8,-2.6,·
CC(NCc1ccccc1)c1ccccc1O (centres undefined),i,-9.7,0.71,0,0.8,13,10,1.3,-11%
